TRPML1 inh – human mucolipin-1 channel inhibition; hit rate 0.02% among 390,000; TRPML1-inducible cells, Ca2+ dye fluorescence, FDSS; stronger effect = lower value; inhibition of EC80 agonist-evoked calcium signal; activity change, negative = inhibition, % (test concentration not listed); in the data active means activity change below about -50%; inconclusive means about -30% to -50%; inactive means above about -30%;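 also: stimulus is agonist 54-4 at its EC80 concentration; % is scaled to controls: 0 for no effect and ±100 for the full control effect; compound concentration not given in the record; the text of the record puts the active cut at -80%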
Target sequence (Q9GZU1 whole entry, looked up): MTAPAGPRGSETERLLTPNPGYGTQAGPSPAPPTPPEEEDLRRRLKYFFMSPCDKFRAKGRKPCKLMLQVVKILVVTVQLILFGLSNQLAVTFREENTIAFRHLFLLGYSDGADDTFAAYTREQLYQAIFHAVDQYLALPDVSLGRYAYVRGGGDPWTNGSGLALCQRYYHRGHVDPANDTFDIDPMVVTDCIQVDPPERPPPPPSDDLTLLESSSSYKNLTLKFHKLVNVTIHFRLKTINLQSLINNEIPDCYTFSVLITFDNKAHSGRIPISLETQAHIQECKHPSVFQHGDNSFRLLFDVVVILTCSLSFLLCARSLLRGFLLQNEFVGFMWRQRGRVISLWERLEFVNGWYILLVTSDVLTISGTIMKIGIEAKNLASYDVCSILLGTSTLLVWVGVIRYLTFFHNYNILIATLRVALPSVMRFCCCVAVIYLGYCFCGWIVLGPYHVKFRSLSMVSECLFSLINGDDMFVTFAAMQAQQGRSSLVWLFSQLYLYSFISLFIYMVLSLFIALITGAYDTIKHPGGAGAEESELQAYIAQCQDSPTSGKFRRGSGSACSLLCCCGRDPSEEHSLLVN
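Tet-induced TRPML1-DL cells loaded with Ca8 no-wash calcium dye were read kinetically on FDSS. Compound addition was followed by EC80 agonist 54-4 (4 uM final); inhibition was read over 110 s.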
ClpP mod – qHTS Assay for Activators of ClpP. purified B. subtilis ClpP, FRET peptide cleavage, 20 min. Potency, µM (series often up to 57.5 µM), without a hit: at the highest dose activity change, negative = active. hit rate 1.9% among 340,000. ATP-dependent Clp protease proteolytic subunit (Bacillus subtilis (strain 168)), P80244; active = well fitted falling curve with a large enough effect; inconclusive = small, poorly fitted or top-dose-only effect; inactive = no such curve, though single readings can be large or run the other way; also: potency is read from the fitted curve at half-maximal effect; the source files actives as falling curves though it sought activators and does not explain the sign; nearly all actives have a fitted effect of over 65% in size; many hits overshoot -100%
Target sequence (P80244 whole entry, looked up): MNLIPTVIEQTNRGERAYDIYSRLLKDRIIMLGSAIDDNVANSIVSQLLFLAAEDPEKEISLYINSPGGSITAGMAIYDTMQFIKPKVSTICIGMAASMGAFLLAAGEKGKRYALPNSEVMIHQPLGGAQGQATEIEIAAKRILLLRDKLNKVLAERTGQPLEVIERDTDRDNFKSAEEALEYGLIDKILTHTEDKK
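Buffer: 100 mM Tris/HCl pH8, 100 mM KCl, 0.05% low protease BSA, 2.5% glycerol, 0.01% Tween-20. ClpP 10 microg/mL final; 20 min RT; delta FRET normalized to ADEP and DMSO controls.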
Starred values were filed as active, the others as inactive; ? = inconclusive. This is a subset; rates above refer to the full screens.

SMILES	TRPML1 inh	ClpP mod
CCOC(=O)c1cccc(NC(=O)N2CC(CC)Sc3ccccc32)c1 (stereo not drawn)	-11	0.3%
CCCCNC(=O)CN1C(=O)COc2ccc(S(=O)(=O)N3CCCC3)cc21	-6	0.6%
CCn1c2ccccc2c2cc(CN3CCN(Cc4ccccc4C)CC3)ccc21	5	?
COc1cccc(NC(=O)Cn2nc(C)c3c(C)n(-c4ccccc4)nc3c2=O)c1	7	-0.9%
CCOc1ccc(C(=O)c2cn(CC(=O)Nc3ccc4c(c3)OCCO4)c3ccc(OC)cc3c2=O)cc1	5	-5.2%
O=C(Cc1cccc([N+](=O)[O-])c1)NCc1nc2cccnc2n1Cc1ccc(F)cc1	2	0.0%
CCOc1ccc(NC(=O)CCS(=O)(=O)c2ccc3c(c2)n(C)c(=O)c(=O)n3C)cc1	24	0.7%
CSc1ncc(Cl)c(C(=O)Nc2ccc(S(=O)(=O)N3CCC(C)CC3)cc2)n1	-18	0.2%
COc1cccc(NC(=O)CSc2nnc3[nH]c(=O)cc(-c4ccccc4)n23)c1	1	4.3%
Cc1ccccc1CNC(=O)C(=O)NCC(c1ccc2c(c1)OCO2)N1CCOCC1 (stereo not drawn)	-21	-1.2%
CC(=O)NCCNc1nc2c(-c3cccc(C)c3)nnn2c2ccc(Cl)cc12	-9	-0.7%
Cn1cc(S(=O)(=O)c2ccccc2)c(=O)c2cc(F)c(N3CCCCC3)cc21	8	?
CCc1ccc(NC(=O)C(=O)NCCc2sc(-c3ccc(OC)c(OC)c3)nc2C)cc1	-4	4.0%
CCOc1ccc(NC(=O)c2cnc(N3CCCC3)nc2C)cc1	-2	-1.2%
COc1ccc(-c2cc(C(=O)Nc3ccc(C#N)cc3)no2)cc1	-25	-30%
Cc1c(NC(=O)Cc2ccc(Cl)cc2)cccc1-c1nc2cccnc2s1	9	-5.5%
Cc1cc(C)c(/C=C/c2onc(C)c2S(=O)(=O)N2CCC(C(=O)N3CCN(c4ccccc4)CC3)CC2)c(C)c1	-11	-6.8%
CCC(=O)N1CCc2cc(CNS(=O)(=O)c3ccc(Br)s3)ccc21	-18	-1.6%
COc1ccc(-c2cnc(C)o2)cc1S(=O)(=O)Nc1ccc(NC(C)=O)cc1	16	-1.7%
Cc1ccc2cccc(NC(=O)C(C)Oc3ccc(Cl)cc3Cl)c2n1 (stereo not drawn)	-10	?
COc1cccc(CNC(=O)Cn2c(=O)nc(-c3ccccc3F)c3cc(Cl)ccc32)c1	5	-0.9%
COc1cccc(NC(CNS(=O)(=O)c2ccc(C)cc2)c2ccccc2)c1 (stereo not drawn)	6	-3.6%
CCOc1ccc(Nc2ncnc3c2nc2n3CCCCC2)cc1	2	0.3%
CC(C)CCNC(=O)c1cc(-c2cccnc2)nc2ccc(S(=O)(=O)N3CCC(C)CC3)cc12	-5	-0.5%
O=C(Nc1cccc(F)c1)[C@H](CSCc1ccccc1)N1Cc2ccccc2C1=O	-15	-5.0%
COc1ccc(-c2c(C)nn3c(N4CCN(c5ccccc5F)CC4)cc(C)nc23)cc1OC	-10	-0.1%
Cc1ccn2c(Nc3ccc4c(c3)OCCO4)c(-c3ccc(C)o3)nc2c1	3	3.7%
Cc1nn(CCCC(=O)Nc2ccccc2C(F)(F)F)c(=O)c2nn(-c3ccccc3)c(C)c12	3	-0.1%
O=C(Nc1ccc(OC(F)(F)F)cc1)NC1COc2ccccc2C1 (stereo not drawn)	-12	-0.4%
Cc1coc2c(C)c3oc(=O)c(CCC(=O)N4CCCCC4)c(C)c3cc12	-4	?
CCOC(=O)c1c(C)oc2nc(C)nc(NCc3ccc(OC)cc3OC)c12	-8	-0.6%
COc1cc(C2c3c(-c4ccc(C)cc4)n[nH]c3C(=O)N2c2ccc(F)cc2)ccc1O (stereo not drawn)	5	-5.5%
CCc1nnc(NC(=O)CSc2nccn2-c2ccc(OC)cc2)s1	4	4.3%
CSc1ccc(CCNC(=O)CN2C(=O)c3cccnc3Oc3ccc(Cl)cc32)cc1	-27	2.6%
COC(=O)c1cc(NC(=O)CN(c2ccccc2)S(=O)(=O)N(C)C)ccc1Cl	10	0.8%
Cc1ccccc1NC(=O)Cn1c(=O)n(CCc2ccccc2)c(=O)c2sc3ccccc3c21	16	-15%
CC(=O)Nc1ccc(-c2nnc(SCC(=O)c3ccc([N+](=O)[O-])cc3)o2)cc1	11	-9.8%
CC1CCCN(c2nc(-c3ccccc3O)nc3ccccc23)C1 (stereo not drawn)	54	0.4%
CCCNC(=O)C1(C)CCCN(C(=O)c2cc(F)cc(F)c2)C1 (stereo not drawn)	6	2.0%
O=C(Cc1ccc(F)cc1)N1CCC(c2nc3c(nnn3Cc3ccc(Cl)cc3)c(=O)[nH]2)CC1	10	4.5%
O=C(NC1CCCC1)c1ccc(CSc2nc3cccnc3n2Cc2ccccc2F)cc1	3	4.5%
CCc1nn2c(=O)cc(COC(=O)c3cccc(NC(=O)COc4ccccc4F)c3)nc2s1	56	4.6%
COC(=O)c1c(NC(=O)COc2ccc(C(C)C)cc2)sc2c1CCCC2	1	-0.7%
CCOc1ccc(C2C=C(c3cccc(OC)c3)Nc3nnnn32)cc1 (stereo not drawn)	-10	-11%
CCOC(=O)c1c(C)[nH]c(CCC(=O)NC(C)c2ccccc2)c1C (stereo not drawn)	0	0.9%
Cc1ccc(NC(=O)Cn2cc(C(=O)c3ccco3)c3ccccc32)cc1C	-5	19%
COc1ccc(C)cc1NC(=O)c1cc(S(=O)(=O)N2CCC(C)CC2)cn1C	4	2.6%
COc1ccc2cc(-c3nnc(Nc4ccccc4)s3)c(=O)oc2c1	-10	-13%
O=C(Nc1ccc(Cl)c(C(F)(F)F)c1)c1ccc2c(c1)CCN2S(=O)(=O)c1ccccc1	16	-5.9%
Cc1ccc(O)c(NC(=O)CCS(=O)(=O)c2nc(-c3cccs3)cc(C(F)(F)F)n2)c1	11	-19%

Remaining list, next part
SMILES	TRPML1 inh	ClpP mod
COc1ccc(OC)c(CNC(=O)CN2N=C(c3ccc(Cl)cc3)CCC2=O)c1	-13	1.2%
CCOC(=O)C1CCN(c2ncnc3c2nc2n3CCCCC2)CC1	-5	0.4%
CCOC(=O)c1c(-c2ccccc2)oc2ccc(N(C(C)=O)S(=O)(=O)c3ccc(CC)cc3)cc12	4	4.0%
CCOC(=O)CNC(=O)N1CCN(S(=O)(=O)c2ccc3c(ccn3C)c2)CC1	-9	-2.2%
CNC(=O)C1CCN(Cc2cc3ccccc3n2Cc2ccccc2C)CC1	26	-1.7%
CN1C(=O)C2(SCC(=O)N2c2cccc(C(F)(F)F)c2)c2ccccc21 (stereo not drawn)	16	2.3%
O=C(Cn1nc(-c2ccccc2)c2c(c1=O)CCCC2)Nc1ccc(F)c(Cl)c1	-6	-3.5%
O=C(NCc1noc2ccccc12)Nc1ccc(F)cc1F	-29	2.1%
COc1ccc(Cc2c(-c3ccc(C)cc3)nc3c(C)cc(Br)cn23)c(C)c1	39	-4.0%
COc1cccc(C2C(C(=O)Nc3ccccc3OC)=C(C)Nc3nc(-c4ccco4)nn32)c1 (stereo not drawn)	-19	-1.3%

Some of these compounds in order of the TRPML1 inh value, rising:
SMILES,TRPML1 inh
CCOC(=O)CNC(=O)N1CCN(S(=O)(=O)c2ccc3c(ccn3C)c2)CC1,-9
CNC(=O)C1CCN(Cc2cc3ccccc3n2Cc2ccccc2C)CC1,26
COc1ccc(Cc2c(-c3ccc(C)cc3)nc3c(C)cc(Br)cn23)c(C)c1,39

The results go on:
SMILES	TRPML1 inh	ClpP mod
CCOc1ccc(Br)cc1C1C(C(=O)OC)=C(C)NC2=C1C(=O)c1ccccc12 (stereo not drawn)	5	-2.1%
Cc1cccc2sc(N(Cc3cccnc3)C(=O)Cc3ccccc3)nc12	69	-4.3%
CC(NC(=O)c1nn(C)c2c1CSc1ccccc1-2)c1ccccc1 (stereo not drawn)	64	-1.1%
O=S(=O)(c1ccc(Cl)cc1)c1nc(-c2cccc(Br)c2)oc1NCc1ccccc1	30	4.0%
CCCCCCNC(=O)c1c[nH]c2ccc(S(=O)(=O)N(C)c3ccc(C(C)C)cc3)cc2c1=O	-12	-9.7%
Cn1c(=O)c2c(nc(N3CCOCC3)n2Cc2ccccc2)n(C)c1=O	-10	1.4%
COc1ccc(NC(=O)CCS(=O)(=O)c2ccc3nc(C)sc3c2)cc1Cl	-2	0.6%
COc1ccc(NC(=O)CSc2nc(-c3ccc(OC)c(OC)c3)[nH]c2-c2ccc(C)cc2)cc1	-4	-14%
Cc1cc(C)c(Nc2ncnc3c2cnn3C)c(C)c1	9	-1.6%
COc1cc(NC(=O)c2nc3ccccc3n(C)c2=O)cc(OC)c1OC	-14	2.0%
CCOC(=O)c1ccc(N2CCN(c3cc(C)ccc3C)CC2)c(NC(=O)Nc2ccc(CC)cc2)c1	17	-4.2%
COc1cccc(Cc2nc3ccccc3nc2SCC(=O)N2CCCc3ccccc32)c1	87	0.9%
COCCNS(=O)(=O)c1cc(-c2nn3c(C)nnc3c3ccccc23)ccc1C	-4	-14%
Cc1ccc(CNc2nc(-c3ccco3)nn2S(C)(=O)=O)cc1	19	-4.0%
O=C(COCc1cc(-c2ccc3c(c2)OCO3)on1)NCc1ccccc1Cl	2	-10%
COc1ccc(NC(=O)c2ccc(-c3nc(CSc4ccccc4)c(C)o3)cc2)c(OC)c1	-13	-1.2%
Cc1ccc(S(=O)(=O)Nc2cc3c(cc2C)n(C)c(=O)c(=O)n3C)c(C)c1	2	-5.2%
CCOC(=O)c1[nH]c(C)c(C(=O)NCc2ccc(F)cc2)c1C	-5	0.1%
CCOc1ccc(NC(=O)CSc2nc3nc(C)c(Cc4ccccc4)c(C)n3n2)cc1	-8	-0.2%
O=C(Nc1cc(-c2nc3cc(Cl)ccc3o2)ccc1Cl)c1cc([N+](=O)[O-])ccc1N1CCOCC1	-9	-0.4%
COc1ccc(CN2C(=O)N(c3ccc(F)cc3)C(=O)C2CC(=O)Nc2ccccc2)cc1 (stereo not drawn)	-7	-0.8%
Cc1cccc(C)c1-n1ncc(C(=O)N2CCN(c3ncccn3)CC2)c1C1CCN(C(=O)OC(C)(C)C)CC1	-2	-0.1%
COc1ccc(C2CC(=O)N(CC(=O)Nc3cccc(C)c3C)c3ccccc3S2)cc1OC (stereo not drawn)	5	2.5%
Cc1ccc(Cn2ccnc2SCC(=O)Nc2nnc(C)s2)cc1	-6	0.3%
CCOc1ccc(CNCCCSc2nnnn2C)cc1OC	15	-2.7%
COc1cc(NC(=O)CSc2nc(-c3ccc(C(C)C)cc3)no2)cc(OC)c1	0	-0.1%
Cc1ccc(NC(=O)C(C)Sc2nc(-c3ccccc3)c(C#N)c(=O)[nH]2)c(C)c1 (stereo not drawn)	-8	1.4%
Cc1noc(/C=C/c2ccccc2F)c1S(=O)(=O)N1CCC(C(=O)N2CCOc3ccccc32)CC1	15	-9.9%
CCC(=O)Nc1cc(-c2cccc(C)c2)nn1-c1ccccc1	-15	-1.2%
Cc1ccc(C)c(NC(=O)CCc2nc(-c3ccc(C(C)(C)C)cc3)no2)c1	16	0.5%
O=C(O)c1ccc(Nc2nc3ccccc3n3cnnc23)cc1	-1	-0.2%
COc1ccccc1CNC(=O)Nc1ccc2c(c1)N(C)C(=O)c1ccccc1S2	21	-2.9%
CC1CCN(S(=O)(=O)c2ccc3c(c2)c(=O)c(C(=O)NC(C)c2ccccc2)cn3C)CC1 (stereo not drawn)	1	-1.4%
COC(=O)c1c(N)n(-c2ccc(OC)c(OC)c2)c2nc3ccccc3nc12	-3	-5.0%
CCOC(=O)c1ccc(NC(=O)CSc2nccn2-c2ccc(OCC)cc2)cc1	-3	-2.0%
O=C1c2[nH]nc(-c3ccccc3O)c2C(c2cccc(Br)c2)N1Cc1ccncc1 (stereo not drawn)	-10	1.2%
COc1ccc(-n2nnc(-c3nc(-c4ccccc4C)no3)c2N)cc1Cl	10	-0.2%
CCC(C)S(=O)(=O)c1oc(-c2cccs2)nc1S(=O)(=O)c1ccccc1 (stereo not drawn)	24	4.5%
Cc1cccc(C)c1-n1ncc(C(=O)Nc2ccc3c(c2)OCO3)c1C1CCN(C(=O)OC(C)(C)C)CC1	-9	-1.8%
Cc1ccc(S(=O)(=O)NCC(c2ccc(N(C)C)cc2)N2CCCC2)cc1 (stereo not drawn)	15	-2.6%
COc1cccc(C(=O)Nc2ccccc2C(=O)OCc2cc(=O)n3c4c(sc3n2)CCCC4)c1	-21	-16%
Cc1ccc(C)c(N2CCN(C(=O)c3ccc(-c4nc(COc5ccccc5)c(C)o4)cc3)CC2)c1	-4	-5.3%

Another view of some results above.
O=C1c2[nH]nc(-c3ccccc3O)c2C(c2cccc(Br)c2)N1Cc1ccncc1 (stereo not drawn)
  TRPML1 inh: -10
  ClpP mod: 1.2%
COc1ccc(-n2nnc(-c3nc(-c4ccccc4C)no3)c2N)cc1Cl
  TRPML1 inh: 10
  ClpP mod: -0.2%
CCC(C)S(=O)(=O)c1oc(-c2cccs2)nc1S(=O)(=O)c1ccccc1 (stereo not drawn)
  TRPML1 inh: 24
  ClpP mod: 4.5%
Cc1cccc(C)c1-n1ncc(C(=O)Nc2ccc3c(c2)OCO3)c1C1CCN(C(=O)OC(C)(C)C)CC1
  TRPML1 inh: -9
  ClpP mod: -1.8%

Screening data: PubChem, National Center for Advancing Translational Sciences (NCATS)
